UCH37 inh – human UCH37 deubiquitinating enzyme inhibition | Q9Y5K5 | purified proteasome/UCH37, Ub-AMC cleavage fluorescence | inhibition, % (concentration not given with the values) | 0.33% of 330,000 active | AID 588478;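 active = mean of two replicates above 20%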;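 also: 0% = compound-free wells with enzyme and 100% = wells lacking proteasome; stock transfer was 100 nL into about 20 µL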
Target sequence (Q9Y5K5 whole entry, looked up): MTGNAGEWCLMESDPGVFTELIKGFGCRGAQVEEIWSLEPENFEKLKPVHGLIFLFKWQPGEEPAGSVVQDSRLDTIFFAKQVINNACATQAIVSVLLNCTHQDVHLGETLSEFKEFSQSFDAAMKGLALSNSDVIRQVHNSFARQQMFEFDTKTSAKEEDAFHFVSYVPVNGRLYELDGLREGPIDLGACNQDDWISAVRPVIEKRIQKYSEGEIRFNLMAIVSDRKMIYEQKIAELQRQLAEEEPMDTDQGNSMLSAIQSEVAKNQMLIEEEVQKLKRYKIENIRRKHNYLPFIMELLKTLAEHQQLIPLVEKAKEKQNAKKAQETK
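system = Proteasome-associated human UCH37 deubiquitinase | amount = 0.15 nM proteasome as dispensed | medium = pH 7.4 Tris-HCl (50 mM) with ovalbumin, ATP-MgCl2, DTT | incubation = 30 min preincubation with enzyme, 25 min cleavage at room temperature | detection = AMC fluorescence 355/460 nm | read-out basis = percent inhibition | controls = no-proteasome and no-compound wells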
LANA-H2A inh – blocks KSHV LANA binding to histone H2A/H2B | Q9QR71 | cell-free LANA-H2A/H2B peptide, fluorescence polarization | inhibition, % (test concentration not listed) | 0.6% of 320,000 active | AID 2629; in the data active = inhibition mostly above about 10%, no sharp cut-off; inactive = mostly below about 6.7%;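 also: stock transfer was 7.5 nL into about 10 µL; 0% = median of vehicle wells and 100% = median of positive control wells; one replicate is shown; the record names a cut of 25% in any replicate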
B2AR ag – agonists of human beta-2 adrenergic receptor inducing internalization. 0.43% of 340,000 active. AID 504454. response, % (no concentration beside the values). Am2.2-beta2AR cells, FAP receptor internalization, flow cytometry; reference of the scale not given here. P07550;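 active = response above a set limit, near 3 SD of response in nonfluorescent compounds, cut at about 42% in these data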;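 also: stock transfer was 100 nL into about 11 µL; a reference agonist was the positive control; negative values mostly stem from fluorescent compounds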
Target sequence (P07550 whole entry, looked up): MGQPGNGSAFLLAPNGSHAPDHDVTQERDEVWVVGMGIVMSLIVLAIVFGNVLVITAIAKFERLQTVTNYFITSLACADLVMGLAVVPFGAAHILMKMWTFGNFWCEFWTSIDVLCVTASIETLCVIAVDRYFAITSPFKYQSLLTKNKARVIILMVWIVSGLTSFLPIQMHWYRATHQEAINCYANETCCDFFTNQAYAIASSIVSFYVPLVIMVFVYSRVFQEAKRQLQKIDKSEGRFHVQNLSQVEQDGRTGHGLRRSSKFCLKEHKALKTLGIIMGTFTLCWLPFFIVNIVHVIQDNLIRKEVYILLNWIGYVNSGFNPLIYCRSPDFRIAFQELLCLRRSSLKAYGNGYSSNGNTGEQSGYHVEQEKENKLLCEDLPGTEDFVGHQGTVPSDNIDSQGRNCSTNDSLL
Beta apoptosis – blocks beta cell apoptosis; INS-1E cytokine-induced death, ATP luminescence, 48 h; percent of positive-control rescue, neutral wells zero; protection from apoptosis, % (test concentration not listed); 0.8% of 300,000 active; AID 435005;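 active = all replicates at 75% or more, or half of them and the mean; inconclusive = half reach 75% but not the mean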;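 also: 0% = cytokine-treated negative control wells and 100% = positive control rescue; higher means more ATP so stronger rescue from cytokine killing; wells of about 40 µL received 100 nL stock; the first replicate is given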
RanGTP-Impb inh – disruptors of Ran-importin-beta complex formation – biochemical, FRET, CFP-Ran, YFP-importin-beta, homogeneous, primary screen; cell-free CFP-Ran/YFP-importin-beta FRET ratio; inhibition, % (concentration not given with the values); 1.1% of 300,000 active;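 active = most replicates above 15%; inconclusive = exactly half above 15%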;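 also: 0% = DMSO wells and 100% = Ran loaded with GDP instead of GTP; wells of about 40 µL received 100 nL stock; the first replicate is given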
Calb FLC – affects C. albicans growth with fluconazole. AID 1979. 0.57% of 300,000 active. growth inhibition, % (no concentration beside the values). C. albicans CaCi-2 (fluconazole-resistant clinical isolate) + fluconazole, Alamar Blue growth, 48 h;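 active = most replicates above 75%; inconclusive = exactly half above 75%; inactive = most below 75%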;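 also: all wells also contain fluconazole at 8 µg/ml as a sub-toxic cotreatment; 0% = median of DMSO wells and 100% = median of geldanamycin control wells; wells of about 8 µL received 7.5 nL stock; the first replicate is given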
A1 inh – inhibitors of the anti-apoptotic protein A1, read as caspase activation | 0.066% of 330,000 active | MEF A1-2A-BIM cells, Caspase-Glo 3/7 luminescence, 3 h; percent of clofoctol response, vehicle zero | AID 2462 | caspase activation, % (concentration not given with the values);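 active = over half of replicate activation scores above 10%, or exactly half above 10 with the replicate mean above 10; inconclusive = replicate mean below 10 yet half the replicates above 10; inactive = over half of replicates below 10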;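 also: wells of about 30 µL received 50 nL stock; many hits fall short of the cut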
T cruzi repl – blocks replication of Trypanosoma cruzi | 1.4% of 300,000 active | inhibition, % (test concentration not listed) | AID 1885 | T. cruzi beta-gal in NIH3T3, luminescence, 90 h;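 active = mean inhibition across valid replicates above about 55%, limit read from the data; inconclusive = mean below that limit but half or more replicates reach it; inactive = mean below it, under half of replicates reach it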;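 also: signal also drops with host cell toxicity which is not excluded here; 0% = plate median of DMSO wells and 100% = zero luminescence signal; higher percent means less beta-gal luminescence so fewer parasites; stock transfer was 50 nL into about 50 µL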
* = called active by the depositor; ? = inconclusive; · = not tested or not shown. Some of the compounds tested (hit frequency here may not be typical).

Values run as follows: LANA-H2A inh, T cruzi repl, A1 inh, RanGTP-Impb inh, B2AR ag, Calb FLC, UCH37 inh, Beta apoptosis
- CCCS(=O)(=O)N1CCC(C(=O)N2CCC3(CC2)OCCO3)CC1
→ 6.3, -4, 0.5, ?, -4, -14, 0.3, -8
- Cc1ccc(N)cc1N
→ -14, ·, 0.1, ·, -6, ·, ·, -11
- O=c1c2ccccc2nc(-c2ccccc2Cl)n1-c1cccc(O)c1
→ 2.1, 4, 0.1, 1.5, -2, 5, 3.2, 1
- CC(O)(CS(=O)(=O)c1ccccc1)C(=O)Nc1ccc(C(F)(F)F)cc1 (configuration not stated)
→ 0.4, -10, -0.2, 8.5, 4, -36, -0.7, 0
- CC[C@H]1CN(C)C[C@@]2(C(=O)OC)Cc3c([nH]c4ccccc34)C(=O)C[C@@H]12
→ 5.2, 3, -0.6, 3.8, -1, 4, 4.0, -5
- COC(=O)C1=C(c2ccc(OC)c(OC)c2)C[C@@H]2CC[C@H]1N2C(=O)N1CCCCC1
→ 0.6, ·, -0.6, ·, 11, ·, 3.6, -5
- CCCN1CCC[C@H](c2cccc(O)c2)C1
→ -7.7, ·, -0.7, ·, 0, ·, 0.8, 0
- CCOC(=O)N(C)c1ccc(C(O)(C(=O)OC)C(F)(F)F)cc1 (configuration not stated)
→ 3.4, 6, -0.6, -1.1, 4, -1, -4.5, -1
- COC(=O)[C@@]1(C#N)[C@@H]2C=CC(C(C)=O)=CN2[C@@H](C(N)=O)[C@@H]1c1ccc(F)cc1
→ -0.6, -9, 0.4, 3.9, 6, 15, 5.3, -8
- CCCCCCN=Cc1c(O)n(C)c(=O)n(C)c1=O
→ -10, 9, 0.1, -0.7, -8, -16, 3.5, -1
- O=P(Oc1ccccc1)(Oc1ccccc1)N1CCN(c2ccc(F)cc2)CC1
→ 3.1, 40, 0.1, 2.6, -5, -2, 3.2, 78*
- COC(=O)C1=C(c2c(C)noc2C)C[C@@H]2CC[C@H]1N2C(=O)N1CCCCC1
→ 4.3, ·, -0.7, ·, 5, ·, 1.1, -1
- Cc1ccc(Cn2nnnc2CN2CCC(n3nnc4cc(C)ccc43)CC2)cc1
→ -1.6, -2, 0.1, 4.2, -11, 20, 4.6, 4
- CCOC(=O)C(=O)NC1CCSC1=O (configuration not stated)
→ -2.5, -11, 0.6, 3.1, 0, ?, -0.9, -6
- CN=C(SCC(=O)c1cccc(Cl)c1)c1c(O)n(C)c(=O)n(C)c1=O
→ -0.2, ·, -0.6, -0.4, 7, -1, 12, -10
- C#CC[N+]1(C)[C@@H]2CC(OC(=O)C(CO)c3ccccc3)C[C@H]1C(O)C2 (some centres not stated)
→ 5.4, 3, 1.3, 4.9, 2, -6, 5.8, 3
- CCOC(=O)c1ccc(NC(=O)C2C3C=CC(O3)C2C(=O)O)cc1 (configuration not stated)
→ -0.6, -5, 0.5, 0.7, ·, -7, ·, 4
- Clc1ccccc1CN1CCNCC1
→ -5.9, 3, -1.3, 1.1, 0, 41, 3.9, -5
- Cc1noc(C)c1CSCC(=O)Nc1ccc(C#N)c(Cl)c1
→ -0.9, ·, 0.0, ·, -3, ·, 7.2, 1
- Cc1ccc(C2=NN(CCC(=O)N3CCC4(CC3)OCCO4)C(=O)CC2)cc1
→ -9.4, -2, -0.4, 8.9, -4, -1, 2.1, -2
- COC(=O)c1cccc(NC(=O)N2C[C@H]3C[C@@H](C2)c2cccc(=O)n2C3)c1
→ 6.2, -1, -0.2, 0.6, -5, 21, 3.2, -9
- Cc1ccc(Cn2cc(C=O)c(-c3ccc(F)cc3)n2)cc1
→ -2.2, 0, -0.2, 2.0, 3, 7, 4.2, -1
- CCn1ccnc1CN1CCCC(C(=O)c2cc(Cl)ccc2OC)C1 (configuration not stated)
→ 1.5, 8, -0.6, 0.1, -9, -8, 0.1, ·
- O=c1[nH]c(=O)n(Cc2ccc(F)cc2)c(O)c1/C=N/Nc1ccccc1
→ 3.0, 26, 0.0, 3.8, 4, -27, 3.1, 3
- COC1=CC(=O)[C@]2(C=C1OC)OC[C@@H]1Oc3c(ccc4c3C=CC(C)(C)O4)C(=O)[C@@H]12
→ 3.7, ·, 2.0, ·, ·, ·, 0.9, 126*
- Cc1ccc(-n2c(O)c(C=NCCC3=CCCCC3)c(=O)[nH]c2=O)cc1
→ 0.6, 6, 0.8, 3.3, 2, -7, 4.0, ·
- COc1cc2c(cc1OC)C(C1c3cc4c(cc3CCN1C)OCO4)OC2=O (configuration not stated)
→ 0.0, -11, 0.7, 5.4, 0, -2, 1.4, -8
- COC(=O)C1=C(c2c(C)noc2C)C[C@@H]2CC[C@H]1N2C(=O)N1CCC(C)CC1
→ -0.7, ·, -1.4, ·, -3, ·, 1.1, -9
- Cc1nc2c(-c3ccccc3)c(C)nn2c(C)c1CCC(=O)N1CCC2(CC1)OCCO2
→ 1.3, 4, 0.4, 0.2, 0, -10, 4.0, 2
- Clc1ccccc1C1=NCc2nncn2-c2sc(Br)cc21
→ 1.1, -6, 0.1, 2.3, 0, -12, 3.5, ·
- Cc1ccc(-c2nc3ccccc3c(=O)n2-c2ccccn2)cc1
→ -1.5, -11, 0.8, 1.6, -9, 1, ·, -3
- CCn1c(C)cc(/C=C2\C(=O)NC(=O)N(c3ccccc3C)C2=O)c1C
→ -2.8, -11, 0.5, ?, -7, 5, 3.2, 5
- COc1cc2c(C(=O)O)c(C)n(C)c2cc1Br
→ -1.3, -10, -0.8, 1.9, 5, -8, 2.1, ·
- Cc1c(C(=O)Nc2ccccc2)cc(-c2ccccc2)n1CCCN1CCOCC1
→ -3.0, 12, 0.6, 4.8, -6, 3, 2.1, -1
- C=CCOc1ccc(CC2C(=O)N(C)C(=O)N(C)C2=O)cc1
→ -0.3, -12, 0.2, -1.9, -3, 33, 2.2, 1
- O=C(NCCN1CCCCC1)c1ccc(Cl)nc1Cl
→ -2.4, 7, 0.4, 1.4, -1, -7, -2.2, -5
- CCC(N)Cc1c[nH]c2ccccc12 (configuration not stated)
→ ·, 14, ·, 2.1, 10, 2, ·, ·
- CC1=C(C(=O)N2CCC3(CC2)OCCO3)C2(CCC(C)CC2)OC1=O (configuration not stated)
→ -4.1, -8, -0.3, 0.5, 3, 45, 5.6, -8
- Cc1ccc2c(c1Cl)NC(C(=O)O)C1CC(Sc3ccccc3[N+](=O)[O-])C(Cl)C21 (configuration not stated)
→ -6.3, -5, -0.1, 0.6, 12, 8, 6.3, -6
- N[C@@H](Cc1c[nH]c2ccccc12)c1nnc(SCc2ccccc2F)o1
→ 2.0, 19, -0.5, 5.0, -1, 22, 2.4, -8
- O=P(Nc1cccc(Cl)c1)(Oc1ccccc1)Oc1ccccc1
→ -2.8, 17, -0.6, -1.6, 2, -41, 2.7, -1
- O=C1NC(=O)N(c2ccc(F)cc2)C(=O)/C1=C/c1ccc(N2CCOCC2)cc1
→ -0.3, -2, 0.5, -0.1, 0, -19, 2.0, -7
- CC(CN1CCOCC1)OC(=O)Cc1ccccc1 (configuration not stated)
→ -3.3, -19, 0.0, 5.4, -2, -7, 4.1, 2
- COC(=O)C1=C(c2c(C)noc2C)C[C@@H]2CC[C@H]1N2C(=O)N1CCC(O)CC1
→ 2.9, ·, 0.7, ·, -1, ·, -1.7, 0
- C=C1N2CCC(CC2)C1(O)c1ccc(C)c(C)c1 (configuration not stated)
→ 0.5, -4, -0.7, 1.7, 2, -1, 0.7, -9
- NC(=O)Nc1ccc(C(=O)OCC(=O)Nc2ccc(Cl)cc2C(=O)c2ccccc2)cc1
→ -3.4, -11, -0.4, 5.5, -5, 4, 5.9, 7
- Cc1cc(OC(C)C(=O)NCc2cccnc2)c2c3c(c(=O)oc2c1)CCC3 (configuration not stated)
→ 3.1, 2, -1.7, 8.4, -1, -4, -26, -1
- O=C1NC(=O)C2(Cc3cc([N+](=O)[O-])ccc3N3CCN(C(=O)c4ccccc4)CC32)C(=O)N1 (configuration not stated)
→ -8.2, -2, 0.4, -1.5, -9, -6, 13, -5
- CP(C)(=O)CCC(=O)O
→ -0.5, 5, 0.6, 0.1, -1, -4, 0.6, ·
- CCC(C)C12CN3CCN(CC(C)(C3)C1=O)C2 (configuration not stated)
→ 2.7, -10, -0.1, 6.5, 2, -1, 3.1, -3
- COc1ccc(NC2(C#N)CCCCC2)cc1
→ 3.7, -15, -0.2, 3.8, 0, -16, 2.3, -2
- COC(=O)C1=C(c2cccc(OCc3ccccc3)c2)C[C@@H]2CC[C@H]1N2C(=O)NCc1ccc(C(F)(F)F)cc1
→ -0.8, ·, 0.0, ·, -2, ·, 3.4, -6
- CC(C)[C@@]1(NC(=O)[C@@H]2C[C@@H]3c4cccc5[nH]cc(c45)C[C@H]3N(C)C2)O[C@@]2(O)[C@@H]3CCCN3C(=O)[C@H](Cc3ccccc3)N2C1=O
→ 16*, 6, -0.8, -27, -5, ·, -3.5, 3
- CCOc1cc2c(cc1OCC)-n1cccc1C(c1ccccc1F)NC2 (configuration not stated)
→ 8.0, 52, 1.3, -0.7, -1, 19, 2.5, 1
- O=c1[nH]c(=O)n(Cc2ccccc2)c(O)c1C=NCCCn1ccnc1
→ -1.9, -36, 0.5, 2.8, 1, 5, 3.7, 0
- CN(C)CCN=Cc1c(O)n(CCC2=CCCCC2)c(=O)[nH]c1=O
→ 1.9, -11, 0.4, 2.2, 1, -4, 0.6, -2
- Cc1cc[n+](Cc2ccccc2)cc1
→ 3.3, -16, -0.2, 1.5, -1, -12, 0.8, -3
- Cc1ccc(-n2c(O)c(C=NCCN3CCOCC3)c(=O)[nH]c2=O)cc1
→ -0.8, 1, 0.9, 3.4, -5, 3, 2.2, -9
- COc1cccc(CN2CCCCC2c2cccnc2)c1 (configuration not stated)
→ 3.8, 34, -0.3, -0.7, -3, -11, -0.1, -7
- COc1ccc(C(=O)C2CCCN(Cc3cnc(C)s3)C2)cc1OC (configuration not stated)
→ 0.6, 7, -0.9, 1.9, -2, 30, -2.2, 1
- Cc1ccc(Cl)cc1N1CCN(CCN)CC1
→ -1.0, 7, 0.6, 0.0, -1, -2, 2.3, -1
- CCC(=O)CC(c1ccc([N+](=O)[O-])cc1)c1c(O)c2ccccc2oc1=O (configuration not stated)
→ -0.6, 4, -1.0, -3.6, 9, -5, 3.7, 4
- COc1cccc(OC)c1C(=O)Nc1nc(N)n(-c2ccccc2)n1
→ 3.6, -35, -0.5, 1.4, -2, -23, 0.6, -1

Compound activity as filed in PubChem BioAssay.
